Source: PubChem BioAssay
NS1 inh = qHTS Assay for Inhibitors of Influenza NS1 Protein Function; S. cerevisiae slowed by influenza A NS1, growth recovery by OD600; Potency, µM (doses to about 46.1 µM), for inactives: at the top dose activity, positive = more growth; hit rate 0.4% among 270,000; active means well fitted rising curve with a large enough effect; inconclusive means small, poorly fitted or top-dose-only effect; inactive means no such curve, though single readings can be large or run the other way; note: nearly all actives have a fitted effect of over 50% in size
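OD600 was taken as the measure of yeast growth restored by compound in an NS1-expressing S. cerevisiae strain. Cells had been washed out of glucose medium and diluted 1:100 into galactose -URA medium, pH 6.0.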
SARS PLpro yeast = qHTS of Yeast-based Assay for SARS-CoV PLP; S. cerevisiae expressing SARS-CoV PLpro, growth rescue; control for the full effect not named in the record; Potency, µM (top dose mostly 32.9 µM), inactives show at the top dose activity, positive = growth rescue; hit rate 0.19% among 330,000; active means well fitted rising curve with a large enough effect; inconclusive means small, poorly fitted or top-dose-only effect; inactive means no such curve, though single readings can be large or run the other way; note: 0% is about no effect; nearly all actives have a fitted effect of over 55% in size; growth read by luminescence after 48 h
RE007 growth inh = qHTS Assay for Inhibitors of the HIV-1 protein Vpr | S. pombe RE007 Vpr strain, BacTiter-Glo ATP luminescence, 24 h; control for the full effect not named in the record | Potency, µM (doses to about 92.2 µM), inactives show at the highest dose activity change, negative = less growth | hit rate 0.21% among 360,000 | AID 651644, 2012; active = well fitted falling curve with a large enough effect; inconclusive = small, poorly fitted or top-dose-only effect; inactive = no such curve, though single readings can be large or run the other way;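 note: % is set by controls: 0 for no effect and ±100 for the full control effect; nearly all actives have a fitted effect of over 50% in size; the assay follows cell death caused by Vpr and the record does not say whether a fall means rescue or toxicity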
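Fission yeast RE007 carrying one integrated HIV-1 vpr copy, seeded at OD 0.01 in PMG+AL medium with 23 nL pinned compound. Grown 24 h at 30 degrees; viability read by BacTiter-Glo luminescence after 5 min.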
Cruzain Triton = qHTS Assay for Promiscuous and Specific Inhibitors of Cruzain (with detergent); Cruzipain (Trypanosoma cruzi), P25779; purified cruzain, Z-FR-AMC fluorescence, 0.01% Triton; Potency, µM, inactives show max response, negative = inhibition, hits mostly inhibitors; hit rate 0.43% among 200,000;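 note: plate controls were neutral wells for no effect and buffer without enzyme for full effect; nearly all actives have a fitted effect of over 40% in size; top concentration of the series not given in the record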
Target sequence (P25779 123-467 limits assumed): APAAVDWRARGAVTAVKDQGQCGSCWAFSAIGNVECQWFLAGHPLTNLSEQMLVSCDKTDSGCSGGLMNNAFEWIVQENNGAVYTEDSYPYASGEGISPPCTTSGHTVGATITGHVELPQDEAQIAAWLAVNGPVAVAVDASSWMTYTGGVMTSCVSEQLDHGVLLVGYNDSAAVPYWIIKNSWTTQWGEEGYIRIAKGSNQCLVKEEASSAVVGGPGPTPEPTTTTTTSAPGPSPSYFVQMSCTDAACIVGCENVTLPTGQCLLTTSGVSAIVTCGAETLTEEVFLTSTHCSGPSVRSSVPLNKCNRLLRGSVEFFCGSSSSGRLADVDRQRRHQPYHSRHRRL
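Steps: dispense cruzain (1.5 nM final) in acetate buffer pH 5.5 with DTT and 0.01% Triton X-100; pin-transfer compounds; incubate 15 min RT; add Z-FR-AMC (2 uM final); read fluorescence every 30 s, using the 60 s intensity change.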
Cruzain inh noDet = qHTS Assay for Promiscuous and Specific Inhibitors of Cruzain (without detergent). Cruzipain (Trypanosoma cruzi), P25779. hit rate 2.3% among 200,000. purified cruzain, Z-FR-AMC fluorescence, no detergent. Potency, µM, without a hit: max response, negative = inhibition, actives largely listed as inhibitors;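 note: plate controls were enzyme without inhibitor for no effect and buffer without enzyme for full effect; nearly all actives have a fitted effect of over 40% in size; top concentration of the series not given in the record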
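Detergent-free condition (0.00005% Triton X-100) in acetate buffer pH 5.5 with DTT. 1.5 nM enzyme and compound were pre-mixed 15 min, then 2 uM Z-FR-AMC substrate added; reaction progress from fluorescence change between first and third reads (60 s).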
Lassa entry inh = qHTS for Inhibitors of binding or entry into cells for Lassa Virus. Lassa virus pseudotype entry inhibition, cell reporter; control for the full effect not named in the record. Potency, µM (top dose mostly 37.9 µM), for inactives: top-dose activity change, negative = inhibition, most hits filed as inhibitors. hit rate 1.2% among 300,000; active means well fitted inhibition curve with a large enough effect; inconclusive means small, poorly fitted or top-dose-only effect, or effect the other way; inactive means flat fitted curve, though single readings scatter; tested in HEK293 cells; note: % is set by controls: 0 for no effect and ±100 for the full control effect; nearly all actives have a fitted effect of over 50% in size; luciferase read-out
2A StopGo = High Throughput Screening for Foot and Mouth Disease Virus Antivirals. Potency, µM (highest dose often 57.9 µM), inactives show at the highest dose signal change, negative = less light. human cells with a luciferase reporter of 2A StopGo recoding; control for the full effect not named in the record. hit rate 1.2% among 410,000. AID 1159524, 2015; active = well fitted falling curve with a large enough effect; inconclusive = small, poorly fitted or top-dose-only effect; inactive = no such curve, though single readings can be large or run the other way; tested in HEK293T cells; note: % is set by controls: 0 for no effect and ±100 for the full control effect; nearly all actives have a fitted effect of over 45% in size; luciferase light after 4 h
MARV entry inh = qHTS for inhibitors of binding or entry into cells for Marburg Virus; Marburg virus pseudotyped entry inhibition, cell reporter; control for the full effect not named in the record; about a third of the inactives were read at about 46 µM; Potency, µM (doses to about 37.8 µM), inactives show at the highest dose activity change, negative = inhibition, most hits filed as inhibitors; hit rate 1.8% among 300,000; active = well fitted inhibition curve with a large enough effect; inconclusive = small, poorly fitted or top-dose-only effect, or effect the other way; inactive = flat fitted curve, though single readings scatter; tested in HEK293 cells; about a fifth of its hits are not listed in these tables; note: % is set by controls: 0 for no effect and ±100 for the full control effect; luciferase read-out
* hit, by the source's call; & = joins results of further samples; [ ] = remark or other dose. Unless noted, calls come from the whole dose curve; as a rule, active = well fitted curve in the direction sought with a large enough effect; inconclusive = small, poorly fitted or top-dose-only effect, or another doubt; inactive = no such curve, though single readings can be large; an effect the other way counts as inactive or inconclusive. Potency is the fitted concentration of half-maximal effect.

Screening CCOC(=O)Cn1c(=O)oc2cc(S(=O)(=O)N3CCCC(C(=O)OCC)C3)ccc21 (stereo not drawn) returned NS1 inh -3.0%, SARS PLpro yeast -0.6%, RE007 growth inh 19.3%, Cruzain Triton -0.8%, Cruzain inh noDet 3.9% and 2A StopGo -25.5%.
Screening Cc1cc(C)c(S(=O)(=O)NCCc2ccccc2)c(C)c1 returned NS1 inh -11.1%, SARS PLpro yeast -1.7%, RE007 growth inh -0.8%, Lassa entry inh inconclusive, 2A StopGo 56.2%[activator] and MARV entry inh inconclusive.
Screening CCCCn1c(O)c(C(C)=Nc2ccc(OCC)cc2)c(=O)[nH]c1=O returned NS1 inh -76.0%, SARS PLpro yeast -3.7%, RE007 growth inh 5.4%, Cruzain Triton -3.4%, Cruzain inh noDet -4.4%, Lassa entry inh inconclusive, 2A StopGo -18.9% and MARV entry inh 6.5%.
`O=C(CN1CCN(c2ncccn2)CC1)Nc1ccccc1C(F)(F)F` gave NS1 inh -4.6%, SARS PLpro yeast 0.8%, RE007 growth inh 3.7%, Lassa entry inh 1.6%, 2A StopGo -28.5% and MARV entry inh 19.5%[46.1 µM].
For CCCN1CCc2c(sc3nc(SCC)n(-c4ccc(OC)cc4)c(=O)c23)C1 the results were NS1 inh -5.9%, SARS PLpro yeast 0.0%, RE007 growth inh -6.4%, Lassa entry inh 5.1%[46.1 µM], 2A StopGo -25.2% and MARV entry inh -0.2%[46.1 µM].
For CCOc1cccc(NC(=O)C2CC(=O)N(CC)C(=Nc3ccc(F)cc3)S2)c1 (stereo not drawn) the results were Cruzain Triton -11.0%, Cruzain inh noDet 3.5%, Lassa entry inh -20.9%[46.1 µM], 2A StopGo -29.5% and MARV entry inh inconclusive.
For CC(C)(C)c1ccc(OCCC(=O)OCC(=O)NC2CCS(=O)(=O)C2)cc1 (stereo not drawn) the results were SARS PLpro yeast 2.4%, RE007 growth inh 7.3%, Lassa entry inh 0.9%, 2A StopGo 11.8% and MARV entry inh 3.5%.
CCOC(=O)C1=C(c2ccccc2)O/C(=C(\C(=O)OC)C(F)(F)F)S1 was read as NS1 inh 4.2%, SARS PLpro yeast 13.3%, RE007 growth inh -6.5%, Cruzain Triton -3.0%, Cruzain inh noDet 3.2%, Lassa entry inh -12.6%, 2A StopGo -19.4% and MARV entry inh -17.8%.
Screening Cc1cc(C)n2c(SCC(C)C)nnc2n1 returned NS1 inh 1.0%, SARS PLpro yeast -0.9%, RE007 growth inh 0.2%, Lassa entry inh 9.7%, 2A StopGo 29.0% and MARV entry inh inconclusive.
Screening CCc1ccc(N(CC(=O)Nc2ccccc2C(=O)N2CCCC2)S(C)(=O)=O)cc1 returned NS1 inh 8.4%, SARS PLpro yeast 3.8%, RE007 growth inh 3.8%, Lassa entry inh -1.0%, 2A StopGo -9.6% and MARV entry inh -13.7%.
Screening O=C(NCCc1ccc(Cl)cc1)c1nnc(Cc2ccc(Cl)cc2Cl)o1 returned Cruzain Triton 0.4%, Cruzain inh noDet -13.1%, Lassa entry inh 4.9%[46.1 µM], 2A StopGo 5.8% and MARV entry inh 3.7%[46.1 µM].
Screening O=C(Nc1ncc(Cc2cccc(Cl)c2Cl)s1)C1CCCO1 (stereo not drawn) returned NS1 inh -5.2%, SARS PLpro yeast -1.0%, RE007 growth inh -14.9%, Lassa entry inh inconclusive, 2A StopGo -2.3% and MARV entry inh inconclusive.
`Cc1ccc(CNC(=O)CCCn2c(=O)[nH]c3ccccc3c2=O)cc1` gave NS1 inh 2.3%, SARS PLpro yeast -7.2%, RE007 growth inh 4.3%, Cruzain Triton 0.9%, Cruzain inh noDet -3.7%, Lassa entry inh 0.2%, 2A StopGo 23.2% and MARV entry inh -6.3%.
O=C(OCC(=O)N1CCN(C(=O)c2ccco2)CC1)c1cc(-c2cccc(Br)c2)nc2ccccc12 was read as NS1 inh 0.9%, SARS PLpro yeast -20.6%, RE007 growth inh inconclusive, Cruzain Triton -4.3%, Cruzain inh noDet inconclusive, Lassa entry inh -18.6%, 2A StopGo inconclusive and MARV entry inh inconclusive.
`O=C(OCC(=O)c1c[nH]c2ccccc12)c1cc(S(=O)(=O)N2CCOCC2)ccc1F` gave SARS PLpro yeast 8.9%, RE007 growth inh 5.9%, Lassa entry inh -4.5%, 2A StopGo -4.5% and MARV entry inh -28.2%.
Screening CC(C)(C)c1ccc(C(=O)NNc2ncnc3c2cnn3-c2ccccc2)cc1 returned Cruzain Triton 1.1%, Cruzain inh noDet -3.4%, Lassa entry inh inconclusive and 2A StopGo 17.4%.
`O=C(COC(=O)c1ccc(F)cc1F)NCCNC(=O)COC(=O)c1ccc(F)cc1F` gave NS1 inh 3.0%, SARS PLpro yeast -0.1%, RE007 growth inh 4.7%, Lassa entry inh 15.9%[46.1 µM], 2A StopGo -6.6% and MARV entry inh 5.7%[46.1 µM].
Screening Cc1cc(C(=O)Nc2ccon2)cs1 returned NS1 inh 0.2%[9.22 µM], SARS PLpro yeast 1.6%, RE007 growth inh -1.0%, Cruzain Triton 3.0%, Cruzain inh noDet 1.3%, Lassa entry inh 45.6%[14.3 µM], 2A StopGo 20.1% and MARV entry inh -11.0%.
N/C(=N\OC(=O)c1cccc([N+](=O)[O-])c1)c1cccnc1 was read as NS1 inh -1.3%, SARS PLpro yeast 7.8%, RE007 growth inh -5.6%, Cruzain Triton -1.1%, Cruzain inh noDet -4.5%, Lassa entry inh inconclusive, 2A StopGo 0.0% and MARV entry inh inconclusive.
COC(=O)CC1=NC(=O)CS1 was read as NS1 inh -6.4%, SARS PLpro yeast 0.0%, RE007 growth inh 3.5%, Cruzain Triton 4.9%, Cruzain inh noDet 0.5%, Lassa entry inh 4.7%, 2A StopGo -3.4% and MARV entry inh 12.1%.
Screening CCOc1cc(OCC)cc(C(=O)Nc2cccnc2)c1 returned NS1 inh -18.4%, SARS PLpro yeast -6.1%, RE007 growth inh 0.0%, Cruzain Triton 5.3%, Cruzain inh noDet -1.2%, Lassa entry inh 5.6%, 2A StopGo -4.8% and MARV entry inh 1.7%.
Cc1cc(=O)n2[nH]c(NC(=O)c3cccc(Cl)c3)nc2n1 was read as Cruzain Triton 2.1%, Cruzain inh noDet -6.2%, Lassa entry inh 18.2%[46.1 µM], 2A StopGo 32.4%[activator] and MARV entry inh inconclusive.
`CCOC(=O)C1=C(COC(=O)c2cccs2)NC(=O)NC1C` (stereo not drawn) gave SARS PLpro yeast 1.8%, RE007 growth inh -1.6%, Lassa entry inh 4.6%, 2A StopGo -21.9% and MARV entry inh 20.6%.
Screening Cc1ccc(C)c(NC(=O)CN(C)C(=O)Cc2ccc(Cl)cc2Cl)c1 returned NS1 inh 4.5%, SARS PLpro yeast 8.2%, RE007 growth inh -2.2%, Lassa entry inh inconclusive, 2A StopGo -19.4% and MARV entry inh inconclusive.
For N[C@@H](Cc1c[nH]c2ccccc12)c1nnc(SCc2ccc(Cl)cc2)o1 the results were NS1 inh -126.5%, SARS PLpro yeast -4.4%, RE007 growth inh -10.3%, Cruzain Triton -8.4%, Cruzain inh noDet -0.2%, Lassa entry inh 1.4%, 2A StopGo -11.5% and MARV entry inh inconclusive.
Screening CCC(C)[C@H](NC(=O)C1CCC(CNC(=O)[C@@H]2CCCN2C(=O)OC(C)(C)C)CC1)C(=O)O (stereo partly drawn) returned NS1 inh 5.0%, SARS PLpro yeast -0.1%, RE007 growth inh -1.1%, Lassa entry inh 26.9%[46.1 µM], 2A StopGo 24.5% and MARV entry inh 1.9%[46.1 µM].
Screening O=C(CSc1nc2ccc(NC(=O)CSc3nnnn3Cc3ccccc3)cc2s1)Nc1ccccc1 returned NS1 inh 10.7%, SARS PLpro yeast -13.8%, RE007 growth inh 5.7%, Cruzain Triton -1.2%, Cruzain inh noDet 10µM*, Lassa entry inh -7.4%, 2A StopGo -15.7% and MARV entry inh inconclusive.
`Cc1cc([N+](=O)[O-])ccc1N1C(=O)c2ccc(C(=O)Nc3ccccc3C(=O)O)cc2C1=O` gave NS1 inh 4.1%, SARS PLpro yeast -0.1%, RE007 growth inh 5.4% and 2A StopGo 2.6%.
`Cc1cccc(NC(=O)C2CCN(S(=O)(=O)c3ccc(F)cc3)CC2)c1C` gave Cruzain Triton -3.9%, Cruzain inh noDet -9.9%, Lassa entry inh -10.3%[46.1 µM], 2A StopGo -22.5% and MARV entry inh inconclusive.
For Cc1ccc(C(=O)NCCCNC(=O)c2ccco2)cc1 the results were NS1 inh -11.9%, SARS PLpro yeast -2.0%, RE007 growth inh 55.8%, Lassa entry inh 6.8%[46.1 µM], 2A StopGo 5.9% and MARV entry inh 10.4%[46.1 µM].
For CCCCOCCCNC(=O)COc1ccccc1 the results were NS1 inh -7.8%, SARS PLpro yeast inconclusive, RE007 growth inh -0.7%, Cruzain Triton 0.0%, Cruzain inh noDet 4.9%, Lassa entry inh 13.7% and MARV entry inh 4.0%.
Screening O=C(COC(=O)c1cccs1)NCCc1ccc(F)cc1 returned SARS PLpro yeast -1.7%, RE007 growth inh 29.2%, Lassa entry inh -5.9%, 2A StopGo 8.7% and MARV entry inh 10.7%[46.1 µM].
Screening N#Cc1cc(-c2ccccc2)nc(N2CCNCC2)n1 returned NS1 inh 1.1%, SARS PLpro yeast 5.7%, RE007 growth inh 6.5%, Lassa entry inh 12.0%[46.1 µM], 2A StopGo -21.9% and MARV entry inh inconclusive.
For Cc1cccc(OCC(=O)NC2CCCCCC2)c1C the results were NS1 inh 9.6%, SARS PLpro yeast 2.5%, RE007 growth inh -4.9%, Lassa entry inh 2.6%[46.1 µM], 2A StopGo -3.6% and MARV entry inh inconclusive.
Screening Cc1ccc(C)c(NC2=NS(=O)(=O)c3ccccc32)c1 returned NS1 inh 2.2%, SARS PLpro yeast 2.1%, RE007 growth inh -15.7%, Cruzain Triton 5.2%, Cruzain inh noDet 0.6%, Lassa entry inh -2.2% and MARV entry inh -0.4%&-0.4%.
